# eIF4H inh: inhibitors of RNA binding by human eIF4H; inhibition, % at 35 µM; eIF4H fluorescence polarization binding assay; 290,000 compounds, 0.94% hits; Q15056;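 active = 50% or more with normal probe brightness, or confirmed in later tests; inconclusive = above 50% with abnormal brightness, or retests that disagree; inactive = below 50% or failed in later tests; about a fifth of its hits are not listed in these tables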;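 also: calls also rest on retests at 20 µM and on dose response follow-up; 0% = protein and probe with vehicle and 100% = probe without protein; strong numbers were not always called active; many hits fall short of the cut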
# UUG fidelity: yeast start codon fidelity modulation. 350,000 compounds, 0.13% hits. activity score, % at 18.7 µM. S. cerevisiae UUG-firefly luciferase reporter, luminescence/redox ratio. AID 602363;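 active = replicate mean at a twofold rise or more, about +100% in these data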;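 also: firefly luciferase made from a UUG start codon reports start codon fidelity; reporter light over untreated wells divided by growth signal over untreated wells; some hits fall short of that in this replicate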
# CSC inhib: blocks cancer stem cells; cancer stem cell-like cells viability, luminescence; inhibition, % at 7.5 µM; 300,000 compounds, 1.1% hits; AID 2717;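 active = mean at 75% or more and at least half the replicates too; inconclusive = mean and replicates disagree; tested in HMLE shEcad cells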;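 also: 0% = median of negative and 100% = median of positive control wells; the first replicate is given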
# MT1-MMP act inh: blocks activation of human MT1-MMP. 360,000 compounds, 0.061% hits. GFP/RFP ratio change, % at 20 µM. AID 651647. HT1080 RFP-PRO-GFP cells, GFP/RFP ratio fluorescence, overnight; percent of plate control window, DMSO zero;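 active = GFP/RFP ratio change of at least 30% with cell ATP level not reduced by more than half and red fluorescence within 50% of control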; also: strong numbers were not always called active
#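 system = RFP-PRO-GFP reporter HT1080 cells | dosing = 20 µM single dose, 1% DMSO | timing = overnight cell settling, then overnight compound exposure, 37 °C, 5% CO2 | read-out basis = GFP/RFP fluorescence ratio | controls = DMSO and RFP-L50D-GFP cell wells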
# Rce1 inhib: blocks yeast Ras-converting enzyme. Q03530. yeast membranes, quenched prenylated peptide cleavage fluorescence. calls only. 290,000 compounds, 0.27% hits. AID 2563;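 active = fall in fluorescence gain of 50% or more versus controls, with final raw signal at or below 3038400; inconclusive = same 50% fall but final raw signal above 3038400; inactive = fall in fluorescence gain under 50%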;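 also: plate controls were neutral control wells for no effect and wells lacking membranes for full effect; tested at 10 µM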
# Target sequence (Q03530 whole entry, looked up): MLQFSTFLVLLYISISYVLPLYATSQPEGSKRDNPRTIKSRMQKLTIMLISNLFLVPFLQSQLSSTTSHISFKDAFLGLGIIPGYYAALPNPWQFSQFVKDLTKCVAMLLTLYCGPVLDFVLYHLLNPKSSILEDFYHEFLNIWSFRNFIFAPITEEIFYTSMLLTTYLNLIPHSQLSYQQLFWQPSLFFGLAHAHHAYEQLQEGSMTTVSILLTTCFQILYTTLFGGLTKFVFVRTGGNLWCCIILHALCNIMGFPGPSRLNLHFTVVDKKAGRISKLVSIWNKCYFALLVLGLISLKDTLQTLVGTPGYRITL
# HIV Env fusion: inhibitors of HIV Env-mediated cell fusion | inhibition, % at 12.3 µM | HeLa-JRFL Env/CEM21 cell fusion, luciferase | AID 651610 | 360,000 compounds, 1.1% hits;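 active = mean replicate inhibition score of at least 50 and every replicate individually at or above 50; inconclusive = only one of the two criteria met; inactive = mean below 50 and not all replicates reaching 50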;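 also: 0% = plate neutral controls and 100% = maraviroc near 300 nM; one replicate is shown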
# PABP FP inh: blocks human PABP binding to poly(A) RNA. P11940. inhibition, % at 35 µM. fluorescence polarization. 290,000 compounds, 1% hits;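 active = 50% or more with normal probe brightness, or confirmed in later tests; inconclusive = above 50% with abnormal brightness, or retests that disagree; inactive = below 50% or failed in later tests; about a fifth of its hits are not listed in these tables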;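 also: calls also rest on retests at 20 µM and on dose response follow-up; controls were probe without protein and protein plus probe with vehicle; some compounds called inactive have numbers as strong as hits; many hits fall short of the cut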
# Target sequence (P11940 whole entry, looked up): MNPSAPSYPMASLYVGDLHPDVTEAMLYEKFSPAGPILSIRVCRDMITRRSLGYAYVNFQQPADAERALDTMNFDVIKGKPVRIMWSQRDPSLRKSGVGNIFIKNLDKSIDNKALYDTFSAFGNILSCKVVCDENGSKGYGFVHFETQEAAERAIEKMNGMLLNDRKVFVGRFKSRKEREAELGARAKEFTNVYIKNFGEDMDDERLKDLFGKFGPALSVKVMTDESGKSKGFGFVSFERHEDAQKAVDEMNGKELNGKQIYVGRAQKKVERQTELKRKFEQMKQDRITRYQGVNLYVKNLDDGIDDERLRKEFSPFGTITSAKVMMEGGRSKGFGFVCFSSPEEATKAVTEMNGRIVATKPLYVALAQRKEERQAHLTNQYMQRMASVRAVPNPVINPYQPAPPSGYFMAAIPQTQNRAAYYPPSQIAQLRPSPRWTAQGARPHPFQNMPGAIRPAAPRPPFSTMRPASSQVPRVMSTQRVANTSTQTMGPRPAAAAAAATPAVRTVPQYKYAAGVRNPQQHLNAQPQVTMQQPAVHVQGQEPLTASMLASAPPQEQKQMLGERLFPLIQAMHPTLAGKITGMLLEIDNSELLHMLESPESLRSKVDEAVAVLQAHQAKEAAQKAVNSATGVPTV
# MT1-MMP act inh RFP: recorded beside MT1-MMP act inh, whose call it bears; RFP signal change, %; measured here: RFP expression control read;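 0 = vehicle wells; hits needed this value within 50% of zero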
# * hit, by the source's call; i = inactive; ? = inconclusive; / = no result given.
structure	MT1-MMP act inh RFP	CSC inhib	eIF4H inh	HIV Env fusion	MT1-MMP act inh	UUG fidelity	Rce1 inhib	PABP FP inh
CCc1ccc(OCC(=O)N(Cc2ccccc2)C2CCS(=O)(=O)C2)cc1 (stereo unspecified)	2	-5	-3	35	1	-31	i	13
CCOC(=O)CNC(=O)CSc1nnc(-c2ccco2)n1N	1	-13	1	-16	0	-9	i	2
CC(=O)OC(C=C(C)C)C/C(C)=C/COc1c2ccoc2cc2oc(=O)ccc12 (stereo unspecified)	-4	/	/	-246	1	1	/	/
Cc1ccc(OCC(=O)N/N=C/c2ccc([N+](=O)[O-])o2)cc1	1	2	23	/	-4	2	i	-7
S=c1cn[nH]c2ccccc12	2	/	/	1	-4	-24	/	/
O=C(CNC(=O)c1ccccc1F)NNC(=O)c1ccccc1O	1	4	/	4	-3	-10	i	/
CCOC(=O)c1ccc(S(=O)(=O)N2CCN(CCC#N)CC2)cc1	1	-4	-1	-10	0	-5	i	5
CN(C)C(=O)CSc1nnc(NC(=O)CCc2ccccc2)s1	1	-7	2	6	3	/	i	-4
COc1nc(Oc2ccc(C(=O)O)cc2)nc(Oc2ccc(C(=O)O)cc2)n1	3	-11	-15	3	1	-3	i	7
COC(=O)c1ccc(NC(=O)CSc2nnc(CNc3ccc(F)cc3)n2C)cc1	-2	-2	0	/	-1	-12	i	-4
CC(C)(C)NC(=O)C(c1cccnc1)N(C(=O)c1csnn1)c1ccccc1 (stereo unspecified)	7	-2	-9	-3	2	3	i	-12
C[C@@]12C(=O)Nc3ccc(Br)cc3C(=O)N1[C@H]1c3cc(Br)ccc3OC[C@@H]1[C@@H]2c1ccccc1	-20	-1	/	63*	-34	-23	/	/
O=C(OCC(=O)c1ccc[nH]1)c1ccc(Cl)c(Cl)c1	-1	12	/	0	-3	-20	/	/
COc1ccc(NC(=O)C2Cc3c(-c4ccc(Cl)cc4)ccnc3O2)cc1OC (stereo unspecified)	-26	/	/	20	5	-2	/	/
COCCCNCCOCCSc1ccc(Cl)cc1	3	41	9	6	3	-4	i	5
COc1ccc(CNC(=O)/C(C#N)=C/c2cccc(OC)c2OC)cc1	-2	42	-16	6	1	0	i	2
O=C(CSc1nnc(-c2ccco2)n1Cc1ccccc1)c1ccccc1	-3	-16	9	/	-3	-7	i	5
CCOC(=O)c1sc(NC(=S)NC(=O)c2ccco2)nc1C	2	-4	4	-430	5	-19	i	-6
CC(C)(C)c1cc(NC(=O)COC(=O)c2ccc(O)cc2O)n(-c2ccccc2)n1	-8	-8	/	/	-1	4	i	/
COc1ccc(CC(=O)N2CCCc3ccccc32)cc1OC	0	/	-5	14	2	32	i	4
CC(C)c1ccc(/C=C/C(=O)O)cc1	0	-9	5	2	0	0	i	2
CC(=O)Nc1cc(C(F)(F)F)ccc1N1CCOCC1	3	-9	-12	/	0	-18	i	4
O=C(c1ccccc1)N1CCN(C(=O)c2cccnc2)CC1	4	-4	5	4	0	-4	i	-5
COc1ccc(-n2nc(C(=O)NCC(=O)NCCCN3CCOCC3)c3ccccc3c2=O)cc1Cl	1	/	-4	-30	1	-4	i	9

# Quoted at random: 4 compounds from above.
structure	MT1-MMP act inh RFP	CSC inhib	eIF4H inh	HIV Env fusion	MT1-MMP act inh	UUG fidelity	Rce1 inhib	PABP FP inh
CC(C)(C)c1cc(NC(=O)COC(=O)c2ccc(O)cc2O)n(-c2ccccc2)n1	-8	-8	/	/	-1	4	i	/
O=C(c1ccccc1)N1CCN(C(=O)c2cccnc2)CC1	4	-4	5	4	0	-4	i	-5
COc1ccc(-n2nc(C(=O)NCC(=O)NCCCN3CCOCC3)c3ccccc3c2=O)cc1Cl	1	/	-4	-30	1	-4	i	9
COc1ccc(CC(=O)N2CCCc3ccccc32)cc1OC	0	/	-5	14	2	32	i	4

# Next compounds:
structure	MT1-MMP act inh RFP	CSC inhib	eIF4H inh	HIV Env fusion	MT1-MMP act inh	UUG fidelity	Rce1 inhib	PABP FP inh
CCOc1ccccc1C(=O)NC(C(=O)NCCc1ccccn1)C(C)C (stereo unspecified)	-3	-2	/	-1	-8	-22	/	/
Cc1ccc(N(CC(=O)N2CCN(c3ccc(F)cc3)CC2)S(=O)(=O)c2c(C)noc2C)cc1	-2	-1	-4	-1	1	-3	i	-2
O=C(Nc1cccc(Cl)c1)Nc1ccc(Cl)cn1	6	-5	0	/	-1	2	i	-13
CCOC(=O)C1=C(COC(=O)c2ccc(Cl)c(S(=O)(=O)N3CCOCC3)c2)NC(=O)NC1C (stereo unspecified)	0	/	/	3	-1	4	/	/
CCOC(=O)CSc1nccc(N(C)C)c1C#N	4	-15	2	/	5	-5	i	8
CCc1ccc(N2C(=O)CN(Cc3sccc3C)C2=S)cc1	-1	18	-2	14	1	/	i	-6
CCn1cnc2sc(-c3ccccc3)cc2c1=O	3	-4	-4	/	-1	/	i	-8
COC(=O)c1cc(Br)c(=O)n(CCC2=CCCCC2)c1	6	-1	3	/	1	2	i	14
Cc1ccc(CNC(=O)C2CCCN(S(=O)(=O)c3c(C)[nH]c(=O)[nH]c3=O)C2)cc1 (stereo unspecified)	4	-6	-1	14	-6	/	i	-5
O=C(NCc1cccnc1)C1CCC(CNS(=O)(=O)c2cccc3nsnc23)CC1 (stereo unspecified)	3	-1	2	-5	5	-5	i	0
CC(C)(C)C1CCC(OC(=O)C[N+]2(C)CCCC2)CC1 (stereo unspecified)	-2	50	-5	-11	-4	/	i	-7
CCC(CC)C(=O)Nc1cccc(C(=O)Nc2ccc3c(c2)OCO3)c1	5	6	-2	/	-1	-7	i	-2
O=C(CCCN1C(=O)CCC1=O)Nc1ccc(Br)cc1F	3	2	-4	-32	7	6	i	-6
Cc1ccc2nc(-c3cccnc3)c(NC3CCCCC3)n2c1	1	-18	17	/	-1	/	i	1
CCOc1nc2c(c(-c3cccs3)c1C#N)Cc1ccccc1-2	-4	20	-4	8	1	-8	i	0
CCOC(=O)C1=C(c2ccccc2)NC(=O)NC1c1ccc(OC)cc1 (stereo unspecified)	1	16	-4	-6	3	/	i	-3
Cn1c(C(=O)NCCCN2CCN(c3ccccc3F)CC2)cc2c(=O)n(C)c3ccccc3c21	5	3	-10	42	4	-16	i	-1
COc1ccc(OCC(O)CNC(=O)Nc2ccccc2)cc1 (stereo unspecified)	4	-6	-6	-2	3	-9	i	2
O=C(NCc1cccc(Cl)c1)c1ccc(S(=O)(=O)Nc2cccc(C(F)(F)F)c2)cc1	-9	30	-8	-10	8	-8	i	4
CSCCC(NC(=O)COc1ccccc1)C(=O)OCC(=O)c1cc2ccccc2o1 (stereo unspecified)	-2	-16	-5	2	-5	-11	i	-2
CC(=O)C1=C(O)C(=O)N(c2ccc(Br)cn2)C1c1cccc([N+](=O)[O-])c1 (stereo unspecified)	-6	6	3	-1	-3	-18	i	4
Cc1ccc(NC(=O)c2cc(-c3ccccc3)n[nH]2)cc1	3	-9	-8	8	1	-17	i	-2
CN(C(=O)c1cccc(NC(=O)Cc2ccc(NC(=O)C3CCN(C(=O)CCc4ccccc4)CC3)cc2)c1)C1CCC1	-8	/	/	12	-3	-12	/	/
CC1CCCCC12NC(=O)N(CC(=O)Nc1ccc(OC(F)F)cc1)C2=O (stereo unspecified)	5	-10	/	/	2	-12	/	/
CN(Cc1ccccc1)C(=O)c1cccc(NC(=O)Cc2cccc(NC(=O)C3CCN(C(=O)c4ccccc4)CC3)c2)c1	-7	/	/	-59	1	-5	/	/
Cc1sc2nc(CSC(C)C(=O)Nc3ccc(C(N)=O)cc3)[nH]c(=O)c2c1C (stereo unspecified)	-1	17	/	/	-9	4	i	/
NC(=O)c1cc(S(=O)(=O)NCc2cccs2)cs1	0	-17	5	-4	0	-12	i	-5
Cc1nn(C(=O)C(C)N2C(=O)c3ccccc3C2=O)c(C)c1Br (stereo unspecified)	1	/	-10	/	1	/	i	6
Cc1ccc(C)c(NC(=S)N2CCC(NC(=O)c3ccco3)CC2)c1	3	-23	-4	23	4	-21	/	10
COc1cccc(Oc2ccc(N)cc2)c1	-4	21	-3	-50	1	-1	i	-19
Cc1nn2c(=O)cc(CSCC(=O)Nc3ccccc3F)nc2s1	3	15	-10	0	-1	0	i	-4
CC1CCN(C(=O)c2cccc(S(=O)(=O)N3CCCc4ccccc43)c2)CC1	-6	/	/	40	5	/	i	/
O=S(=O)(Nc1cccc(C(F)(F)F)c1)c1cnc[nH]1	5	5	4	-42	15	-10	i	-6
COc1ccccc1-c1cccc([C@@H]2C[C@H]3[C@H](CON3C)CN2S(=O)(=O)c2ccccc2C)c1	-3	/	/	25	-5	-21	/	/
CCOc1ncccc1C(=O)OC(C)C(=O)Nc1ccc(CC)cc1 (stereo unspecified)	4	-9	-4	16	3	/	i	?
COCC(=O)Nc1ccccc1NC(C)=O	8	-6	0	-24	5	-6	i	9
CCCCNC(=O)c1cc2nc(-c3ccc(OC)cc3)cc(C(F)(F)F)n2n1	-3	/	/	-1	4	-14	/	/
Cc1ccc2c(CC(=O)OCC(=O)N(CC(C)C)c3c(N)n(Cc4ccccc4)c(=O)[nH]c3=O)coc2c1	-3	-14	/	-2	-5	/	i	/
C(=N\n1cnnc1)/c1ccc(N2CCOCC2)cc1	7	1	3	-134	3	-13	i	3
O=C1CC(C(=O)Nc2ccccc2)N=C(N2CCCCC2)N1 (stereo unspecified)	7	-3	5	-44	1	-16	i	-7
Cn1c(CSCc2ccccc2)nnc1SCC(=O)Nc1nccs1	-1	0	8	-16	7	-18	i	-9
COc1ccc(CN2CCSCC2)cc1C	1	19	-1	/	5	-19	i	9
N/C(=N\OC(=O)c1cccnc1)c1ccc(Cl)cc1Cl	1	-2	-3	11	2	/	i	-5
CCC(=NOCc1ccccc1)C(=O)NNS(=O)(=O)c1ccc(C)cc1	-1	/	/	57*	-4	16	/	/
O=C(C1CC2CCC1C2)N1CCN(Cc2ccc3c(c2)OCO3)CC1 (stereo unspecified)	/	-6	-1	/	/	/	i	-4
Cc1csc2c(=O)sc(NC(=O)c3ccc(F)cc3Cl)nc12	-8	16	7	-4	1	/	i	0
COc1cc(C(=O)Nc2nnc(C3=COCCO3)o2)cc(OC)c1OC	4	-2	0	-8	-1	-20	i	4
c1ccc(CSc2snnc2-c2ccccc2)cc1	2	/	-13	-23	5	-23	i	-6
COc1ccc(-c2nc3ncccc3o2)cc1NC(=O)c1cccs1	-3	4	-3	11	-2	-11	i	4
COc1ccc(N(C(=O)c2snc(C(N)=O)c2N)C(C(=O)NC2CCCCC2)c2ccc(C)o2)cc1 (stereo unspecified)	-4	2	-4	18	-6	-23	i	0
CCNC(=O)N1CCCC(C(=O)c2ccc3cc(OC)ccc3c2)C1 (stereo unspecified)	4	-7	-1	-6	1	/	i	4
C1CCCN(c2nc3nonc3nc2N2CCCCCC2)CC1	-1	-5	16	8	4	/	i	-14
Cc1ccc2nc(-c3ccccn3)oc2c1	-9	33	2	/	-8	-21	i	0
CCNC(=O)C1(C)CCN(C(=O)c2ccc(-c3ccccc3)cc2)C1 (stereo unspecified)	-1	/	/	5	7	-15	/	/

# Screening results as filed in PubChem BioAssay.
